eIF4H inh = inhibitors of RNA binding by human eIF4H. Q15056. eIF4H fluorescence polarization binding assay. inhibition, % at 35 µM. 0.94% of 290,000 active. AID 2012;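 active = 50% or more with normal probe brightness, or confirmed in later tests; about a fifth of its hits are not listed in these tables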;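 note: calls also rest on retests at 20 µM and on dose response follow-up; 0% = protein and probe with vehicle and 100% = probe without protein; strong numbers were not always called active; many hits fall short of the cut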
MT1-MMP act inh = MT1-MMP (human) activation inhibition. P50281. 0.061% of 360,000 active. GFP/RFP ratio change, % at 20 µM. HT1080 RFP-PRO-GFP cells, GFP/RFP ratio fluorescence, overnight; percent of plate control window, DMSO zero;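 active = GFP/RFP ratio change of at least 30% with cell ATP level not reduced by more than half and red fluorescence within 50% of control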; note: strong numbers were not always called active
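Assay system: HT1080 RFP-PRO-GFP cells | Dosing: 20 µM single dose, 1% DMSO | Incubation: Cells overnight before dosing, compound overnight, 37 °C, 5% CO2 | Evaluation: GFP/RFP fluorescence ratio | Control set: DMSO-only wells and HT1080 RFP-L50D-GFP cell wells as references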
Rce1 inh = yeast Ras-converting enzyme inhibition. 0.27% of 290,000 active. calls only. Q03530. yeast membranes, quenched prenylated peptide cleavage fluorescence;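 active = fall in fluorescence gain of 50% or more versus controls, with final raw signal at or below 3038400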;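 note: plate controls were neutral control wells for no effect and wells lacking membranes for full effect; tested at 10 µM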
Target sequence (Q03530 whole entry, looked up): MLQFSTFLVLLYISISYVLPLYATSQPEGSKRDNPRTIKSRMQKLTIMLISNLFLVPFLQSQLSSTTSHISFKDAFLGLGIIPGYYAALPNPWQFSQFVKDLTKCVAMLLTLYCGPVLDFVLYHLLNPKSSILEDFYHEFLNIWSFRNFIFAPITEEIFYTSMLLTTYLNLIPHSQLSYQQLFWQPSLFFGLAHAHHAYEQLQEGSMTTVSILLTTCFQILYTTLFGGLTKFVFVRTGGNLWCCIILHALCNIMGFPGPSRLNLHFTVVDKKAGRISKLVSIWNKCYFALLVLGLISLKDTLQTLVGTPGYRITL
CSC inhib = cancer stem cell inhibition. AID 2717. 1.1% of 300,000 active. inhibition, % at 7.5 µM. cancer stem cell-like cells viability, luminescence;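 active = mean at 75% or more and at least half the replicates too; tested in HMLE shEcad cells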;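 note: 0% = median of negative and 100% = median of positive control wells; the first replicate is given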
PABP polyA inh = PABP-poly(A) binding inhibition; AID 2014; 1% of 290,000 active; inhibition, % at 35 µM; PABP-poly(A) RNA binding, fluorescence polarization;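 active = 50% or more with normal probe brightness, or confirmed in later tests; about a fifth of its hits are not listed in these tables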;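 note: calls also rest on retests at 20 µM and on dose response follow-up; controls were probe without protein and protein plus probe with vehicle; some compounds called inactive have numbers as strong as hits; many hits fall short of the cut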
Target sequence (P11940 whole entry, looked up): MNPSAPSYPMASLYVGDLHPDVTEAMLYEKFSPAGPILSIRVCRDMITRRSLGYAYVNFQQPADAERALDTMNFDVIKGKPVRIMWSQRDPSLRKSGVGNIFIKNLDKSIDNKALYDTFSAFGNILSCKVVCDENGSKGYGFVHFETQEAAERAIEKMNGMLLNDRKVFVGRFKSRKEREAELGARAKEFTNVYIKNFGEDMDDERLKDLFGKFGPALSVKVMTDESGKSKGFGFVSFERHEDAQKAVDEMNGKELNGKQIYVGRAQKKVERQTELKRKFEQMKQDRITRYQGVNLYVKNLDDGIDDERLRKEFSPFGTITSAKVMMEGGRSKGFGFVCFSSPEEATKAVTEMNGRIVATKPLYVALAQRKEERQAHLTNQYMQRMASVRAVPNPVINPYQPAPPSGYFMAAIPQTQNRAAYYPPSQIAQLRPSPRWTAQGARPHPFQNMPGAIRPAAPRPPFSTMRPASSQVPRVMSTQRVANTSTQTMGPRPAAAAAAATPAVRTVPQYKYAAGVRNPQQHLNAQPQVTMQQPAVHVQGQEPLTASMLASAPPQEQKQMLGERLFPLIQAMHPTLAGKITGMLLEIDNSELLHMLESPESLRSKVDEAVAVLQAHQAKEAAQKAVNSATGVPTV
UUG fidelity = yeast start codon fidelity modulation; S. cerevisiae UUG-firefly luciferase reporter, luminescence/redox ratio; activity score, % at 18.7 µM; 0.13% of 350,000 active; AID 602363;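 active = replicate mean at a twofold rise or more, about +100% in these data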;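 note: firefly luciferase made from a UUG start codon reports start codon fidelity; reporter light over untreated wells divided by growth signal over untreated wells; some hits fall short of that in this replicate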
HIV Env fusion = HIV envelope-mediated fusion inhibition | HeLa-JRFL Env/CEM21 cell fusion, luciferase | inhibition, % at 12.3 µM | 1.1% of 360,000 active;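 active = mean replicate inhibition score of at least 50 and every replicate individually at or above 50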;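 note: 0% = plate neutral controls and 100% = maraviroc near 300 nM; one replicate is shown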
MT1-MMP act inh RFP = further read-out of MT1-MMP act inh, marked with its call; RFP signal change, %; measured here: RFP expression control read;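 0 = vehicle wells; hits needed this value within 50% of zero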
An asterisk follows results filed as active; i = inactive; . = no result given; [ ] = another dose, or the depositor's remark.

SMILES	eIF4H inh	MT1-MMP act inh	MT1-MMP act inh RFP	Rce1 inh	CSC inhib	PABP polyA inh	UUG fidelity	HIV Env fusion
O=C(Nc1ccccc1Cl)c1ccc(-c2ccccn2)s1	0	1	-1	i	3	7	.	-40
C[C@H](CO)N1C[C@H](C)[C@@H](CN(C)S(=O)(=O)c2ccccc2)Oc2ccc(NS(=O)(=O)c3cccs3)cc2C1=O	.	4	-3	.	-20	.	2	-19
COc1cc(C(=O)Nc2ccc(O)cc2)ccc1OC(C)=O	1	-1	4	i	2	-18	-11	-61
Cc1ccc(C)c(CSc2nnc(-c3cccs3)n2Cc2ccco2)c1	2	2	-3	i	.	-6	-11	-96
CN1C(=O)c2ccccc2Sc2ccc(NC(=O)N3CCCC3)cc21	-1	5	1	i	-9	-6	-19	.
CC(C)CC(=O)n1sc(NC(=O)c2ccccc2)nc1=O	3	-3	4	i	3	-6	15	.
C[C@@H]1Cn2cnc(C(=O)N[C@@H](Cc3c[nH]c4ccccc34)C(=O)OC(C)(C)C)c2C(=O)N1	.	3	-1	.	.	.	-16	2
COC(=O)C1(C)NC(c2ccccc2C)C2C(=O)N(c3ccc(F)cc3)C(=O)C21 (configuration not stated)	-12	3	5	.	-2	11	-6	9
CC(CO)(CO)NC(=O)c1ccc(=O)[nH]n1	10	1	3	i	-7	-2	-5	-8
Cc1cnc(CNC(=O)CC2C(=O)NCCN2Cc2cccc(F)c2F)cn1 (configuration not stated)	81*	-1	6	i	1	53*	-18	2
O=C(Nc1ccc2c(c1)OCCO2)N1CCN(Cc2ccccc2)CC1	1	1	1	i	-1	5	-30	1
CC(=O)NCCCC(=O)NNC1CC(=O)N(c2cccc(Cl)c2)C1=O (configuration not stated)	10	1	3	i	-8	-13	-16	-3
Fc1ccc(CSc2ccc(-c3ccc4c(c3)OCO4)nn2)cc1	9	0	-6	i	-11	-6	.	12
CC1(C)C(=O)Nc2ccccc2N1C(=O)COc1cccnc1[N+](=O)[O-]	9	2	6	i	-9	3	.	14
CC(C)(C)C(=O)Nc1sc2c(c1C#N)CCCCC2	8	-1	-3	i	1	6	7	.
Cc1nc2sccn2c(=O)c1S(=O)(=O)Nc1ccc(N2CCOCC2)cc1	.	1	0	.	.	.	-5	-10
Cc1ccc(C)c(N2CCN(C(=O)CN(C)S(=O)(=O)c3ccc4c(c3)CCC(=O)N4)CC2)c1	8	1	-8	i	-9	-4	3	37
Cc1c(C(=O)NC2CC2)oc2ccc(S(=O)(=O)N3CCCCCC3)cc12	-7	0	-7	i	-4	-2	.	16
FC(F)Sc1ccc(-n2cc(-c3ccc(Cl)cc3)[n+]3c2CCC3)cc1	-7	-1	-9	i	.	-15	.	-11
N#CCCn1ncc2ccccc21	-5	-3	-3	.	-11	1	-12	-13
COc1cc2nc(C3CC3)n(NC(=O)c3ccc(Cl)cc3)c(=O)c2cc1OC	2	0	-5	i	6	3	7	16
Cc1nc2scc(C)n2c(=O)c1S(=O)(=O)N1CCN(c2ccccc2F)CC1	-5	5	1	i	-20	5	9	-10
O=C(NCc1ccc(Cl)cc1)c1csc(-c2cccnc2)n1	8	-9	-3	i	-19	0	.	21
C/C(NCCN1CCOCC1)=C(\C#N)C(N)=O	-1	1	-1	i	.	-18	-18	.
CC(C)CC(=O)NC(=S)Nc1ccc(N2CCOCC2)cc1	1	3	4	i	-1	2	.	-2
SMILES	eIF4H inh	MT1-MMP act inh	MT1-MMP act inh RFP	Rce1 inh	CSC inhib	PABP polyA inh	UUG fidelity	HIV Env fusion
CSc1ccccc1NC(=O)CN(C1CCCCC1)S(C)(=O)=O	-1	-3	1	i	-3	5	1	-55
CC(C)N(C(=O)COC(=O)Cn1cnc2ccccc21)c1ccccc1	.	2	2	.	.	.	-18	2
CN(C(=O)CSc1nnc(C2CC2)n1C1CC1)C1(C#N)CCCCC1	.	1	3	.	-5	.	-13	-3
COc1ccc(C(=O)NNC(=O)CSc2nc(C(C)C)nc3ccccc23)cc1	-10	-3	-5	.	-5	-11	-6	13
COC(=O)C(O)(CC(=O)Nc1ccc(Cl)cc1Cl)C(F)(F)F (configuration not stated)	1	-1	-3	i	-5	12	-3	.
CCN1C[C@@H]2[C@@H]3C(=O)N(C)C(=O)[C@@H]3[C@](Cc3ccccc3)(C1=O)N2C(=O)c1ccc(C(C)(C)C)cc1	.	3	1	.	.	.	-5	-35
O=C(Nc1ccc(-n2ccnc2P(=O)(O)c2ccccc2)cc1)c1ccccc1Cl	-3	2	3	i	7	9	-28	19
CCOC(=O)C1CCCN(C(=O)c2cccc(N3C(=O)c4ccccc4C3=O)c2)C1 (configuration not stated)	.	-1	1	.	.	.	-10	0
COC(=O)C1=NNC2C(=O)N(C3CCCCC3)C(=O)C12 (configuration not stated)	-3	1	0	i	7	2	-2	-6
O=C1c2cccnc2C(=O)N1Cc1ccccc1	11	1	3	i	-22	6	-6	10
O=C1/C(=C/c2ccccc2)NC(=S)N1C(c1ccccc1)c1ccccc1	-13	-2	2	i	65	-3	-17	.
CC1CCN(S(=O)(=O)c2ccc(C(=O)NC3CCS(=O)(=O)C3)cc2)CC1 (configuration not stated)	.	9	-1	i	-6	.	.	5
COc1ccc(O)c(-c2[nH]ncc2C(=O)c2ccccc2C)c1	4	-3	-6	i	-5	10	1	.
CO[C@@H]1CN(C)C(=O)c2cc(NC(=O)Nc3cc(F)ccc3F)ccc2OC[C@H](C)N(C(=O)c2ccccn2)C[C@@H]1C	.	1	-1	.	.	.	2	14[16.7 µM]
CN1CCN(C(=O)NC2CCCN2S(=O)(=O)c2ccc(Cl)cc2)CC1 (configuration not stated)	0	-1	2	.	-9	1	.	.
O=c1c2ccccc2nc2sc3ccccc3n12	0	-5	9	i	0	-2	-14	.
C=CCSc1nnc(-c2c[nH]c3ccccc23)n1CC	-1	1	-5	.	.	11	-1	-51
O=C(Nc1c(F)cc(F)cc1Br)c1cccnc1	3	1	2	i	-21	4	.	.
C(=C\c1ccc(/C=C/c2ccccc2)nn1)/c1ccccc1	-13	.	.	i	-3	10	.	.
CC(CC(=O)O)CC(=O)Nc1ccc(Br)cc1 (configuration not stated)	9	-1	4	i	-14	-2	-21	-16
C/C(=N\NC(=O)c1ccc2nc[nH]c2c1)c1ccc([N+](=O)[O-])cc1	-1	.	.	i	-13	-3	.	.
CC(C)=CCN1CCN(CCC2=C(C)CCCC2(C)C)CC1CCO (configuration not stated)	-8	1	-1	i	35	-6	.	13
CCc1cc(=O)[nH]c(SCC(=O)NCc2ccc3c(c2)OCO3)n1	.	1	2	i	-20	.	.	-4
COc1ccc(N2C(C(C)=O)=NN(c3ccccc3)C2c2cccs2)cc1 (configuration not stated)	-5	1	-1	i	5	-2	1	.
Cc1ccccc1C(=O)/C=C1\NC(=O)CS1	-3	-1	5	.	-10	-7	.	-17

Some of these compounds in order of SMILES length, lowest first.
SMILES	eIF4H inh	MT1-MMP act inh	MT1-MMP act inh RFP	Rce1 inh	CSC inhib	PABP polyA inh	UUG fidelity	HIV Env fusion
O=c1c2ccccc2nc2sc3ccccc3n12	0	-5	9	i	0	-2	-14	.
O=C1c2cccnc2C(=O)N1Cc1ccccc1	11	1	3	i	-22	6	-6	10
Cc1ccccc1C(=O)/C=C1\NC(=O)CS1	-3	-1	5	.	-10	-7	.	-17
CC(CC(=O)O)CC(=O)Nc1ccc(Br)cc1 (configuration not stated)	9	-1	4	i	-14	-2	-21	-16
C=CCSc1nnc(-c2c[nH]c3ccccc23)n1CC	-1	1	-5	.	.	11	-1	-51
COC(=O)C1=NNC2C(=O)N(C3CCCCC3)C(=O)C12 (configuration not stated)	-3	1	0	i	7	2	-2	-6
CC(C)=CCN1CCN(CCC2=C(C)CCCC2(C)C)CC1CCO (configuration not stated)	-8	1	-1	i	35	-6	.	13
COc1ccc(O)c(-c2[nH]ncc2C(=O)c2ccccc2C)c1	4	-3	-6	i	-5	10	1	.
CC(C)N(C(=O)COC(=O)Cn1cnc2ccccc21)c1ccccc1	.	2	2	.	.	.	-18	2
CN(C(=O)CSc1nnc(C2CC2)n1C1CC1)C1(C#N)CCCCC1	.	1	3	.	-5	.	-13	-3
CN1CCN(C(=O)NC2CCCN2S(=O)(=O)c2ccc(Cl)cc2)CC1 (configuration not stated)	0	-1	2	.	-9	1	.	.
O=C1/C(=C/c2ccccc2)NC(=S)N1C(c1ccccc1)c1ccccc1	-13	-2	2	i	65	-3	-17	.
COc1ccc(C(=O)NNC(=O)CSc2nc(C(C)C)nc3ccccc23)cc1	-10	-3	-5	.	-5	-11	-6	13
C/C(=N\NC(=O)c1ccc2nc[nH]c2c1)c1ccc([N+](=O)[O-])cc1	-1	.	.	i	-13	-3	.	.
CO[C@@H]1CN(C)C(=O)c2cc(NC(=O)Nc3cc(F)ccc3F)ccc2OC[C@H](C)N(C(=O)c2ccccn2)C[C@@H]1C	.	1	-1	.	.	.	2	14[16.7 µM]
CCN1C[C@@H]2[C@@H]3C(=O)N(C)C(=O)[C@@H]3[C@](Cc3ccccc3)(C1=O)N2C(=O)c1ccc(C(C)(C)C)cc1	.	3	1	.	.	.	-5	-35

Going on with the list:
SMILES	eIF4H inh	MT1-MMP act inh	MT1-MMP act inh RFP	Rce1 inh	CSC inhib	PABP polyA inh	UUG fidelity	HIV Env fusion
CC(=O)N(c1ccccc1)C1CC(C)N(C(=O)c2ccccc2)c2ccccc21 (configuration not stated)	-1	1	-4	i	8	10	9	-4
N=c1c(S(=O)(=O)c2ccc(Cl)cc2)cc2c(=O)n3ccccc3nc2n1Cc1ccco1	73*	-11	-4	i	.	65*	-6	-8
CCOC(=O)Cc1csc(NC(=O)c2ccc3ccccc3n2)n1	-3	-4	0	i	0	12	-7	-8
COc1ccccc1N1CCN(Cc2cc(=O)oc3cc(C)cc(C)c23)CC1	.	3	-4	.	.	.	3	10
CC(Oc1ccccc1)C(=O)NNC(=O)c1ccccn1 (configuration not stated)	9	6	7	i	13	-7	-16	.
O=C(CNC(=O)c1cccs1)NCC(=O)OCc1c(Cl)cccc1Cl	8	7	3	i	15	15	23	.
CC(CN(C)Cc1ccccc1)OC(=O)c1cccs1 (configuration not stated)	-3	-1	4	i	4	2	-11	-42
COc1ccc(-n2c(SC(C)C(=O)Nc3ncc(Cl)cc3Cl)nc3ccccc32)cc1 (configuration not stated)	-9	-10	-14	i	59	0	7	-73
CCOC(=O)CN(C(=O)CNC(=O)c1cccs1)C(C(=O)NC1CCCCC1)c1cccs1 (configuration not stated)	-2	3	8	i	-6	-3	2	-64
COc1ccc(/C=C/C(=O)NC(=S)Nc2ccc(S(N)(=O)=O)cc2)cc1OC	7	-6	-4	i	4	-2	-15	-5
O=C(Cn1nnc(-c2ccccc2-n2cnnn2)n1)c1ccccc1	-5	1	1	i	.	2	-8	-36
COc1ccc(NC(=O)CC(C)n2ccnc2)cc1 (configuration not stated)	-9	-1	2	i	-9	-10	-15	7
Cc1c(OCC(=O)NCc2ccncc2)ccc2c3c(c(=O)oc12)CCCC3	6	0	0	i	13	5	-16	-20
O=C(OCC(=O)N1CCCC1)c1cc(Br)ccc1Cl	-4	0	-2	i	-7	-3	.	14
O=C(Nc1ccc(F)cc1)c1ccccc1CC[N+](=O)[O-]	-7	2	7	i	-6	-4	.	.
COC(=O)c1c(C)nn(-c2ccc(OC(F)(F)F)cc2)c1-c1snnc1C	-9	2	-5	i	41	7	-2	15
CCOC(=O)c1[nH]c(C)c(C(=O)N2CCc3c([nH]c4ccccc34)C2c2ccccn2)c1C (configuration not stated)	-8	-9	-11	i	18	1	.	-6
COc1ccccc1CN1CCN(Cc2ccco2)CC1	14	0	0	i	-9	11	0	6
O=C(CN1C(=O)NC2(CCCC2)C1=O)Nc1nc2ccccc2[nH]1	.	2	-3	.	-5	.	2	-12
O=C(N/N=C/C(Br)=C\c1ccccc1)c1ccc2nc[nH]c2c1	0	3	1	i	26	-7	-21	-57
CCCCNC(=O)c1onc(CSc2ccc(Cl)cc2)c1C(=O)O	-3	3	1	i	26	12	-1	6
